Assay outcomes: PubChem BioAssay, Fisher Drug Discovery Resource Center
NPYLR7 ag: activates Aedes aegypti NPYLR7 receptor | HEK293T NPYLR7/Galpha15, GCaMP6s calcium fluorescence | activation, % at 10 µM | 270,000 compounds, 0.15% hits; in the data active = activation above about 40%;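 also: 0% = vehicle and 100% = reference agonist at the receptor; some compounds past the cut are filed as inactive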
NPYLR7 ag max-min: second read-out of NPYLR7 ag, no call of its own (marks repeat the call); activation, %; measured here: Max-Min RFU normalised activation; some inactives read as strong as hits;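 span of the calcium signal over five minutes; 0% = vehicle and 100% = native peptide agonist; compound fluorescence can raise it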
Active calls of the source: *; & = joins results of further samples.

| no. | smiles | NPYLR7 ag | NPYLR7 ag max-min |
| --- | --- | --- | --- |
| 1 | N#Cc1ccccc1NC(=O)COC(=O)c1cc(=O)c2cc(Cl)ccc2o1 | 4 | -1 |
| 2 | Cc1cc(C)nc(N=Cc2nc(-c3ccccc3)oc2O)c1 | -5 | -12 |
| 3 | O=C(Cn1nnc2ccccc2c1=O)NC1CCSc2ccccc21 (configuration not stated) | 0 | -1 |
| 4 | O=C1NC2(CCCC2)C(=O)N1CCS(=O)(=O)Oc1ccc(Br)cc1 | -7 | -17 |
| 5 | COc1cccc(Cc2nsc(N(CC(=O)NC(c3ccccc3)c3ccccc3)Cc3ccccc3)n2)c1 | 3 | 3 |
| 6 | Cc1cc(CC(=O)O)n(C)c1C(=O)c1ccc(Cl)cc1 | -8&-3 | -13&-4 |
| 7 | Cc1ccc(OCc2occc2C(=O)N2CCC(O)(CN(C)C)C2)cc1 (configuration not stated) | 3 | 1 |
| 8 | Cc1ccc(-c2noc(-c3ccc(=O)n(CC(=O)N4CCCCC4)c3)n2)cc1 | -1 | 6 |
| 9 | CCOC(=O)c1nc2cc(C)c(C)cc2nc1N1CCN(C(=O)c2ccc([N+](=O)[O-])o2)CC1 | 9 | 3 |
| 10 | CN(C(=O)Cc1csc(NC(=O)c2ccccc2)n1)C1CCS(=O)(=O)C1 (configuration not stated) | 8 | 3 |
| 11 | O=S(=O)(c1ccc(Sc2nnnn2C2CCCC2)nc1)N1CCCCC1 | 2 | 3 |
| 12 | CC1(C)OCC(CN2C(=O)c3ccccc3NC2c2cc(C#Cc3ccccc3)cs2)O1 (configuration not stated) | -1 | -1 |
| 13 | CCn1c(SC(C(=O)OC)c2ccccc2)nnc1-c1cccs1 (configuration not stated) | -6 | 14 |
| 14 | O=C1CCCCCN1Cc1n[nH]c(=S)n1-c1ccccn1 | 1 | -1 |
| 15 | CCSc1nc(-c2ccccc2)cc(-c2ccccc2OC)c1C#N | -3 | -9 |
| 16 | COc1ccc(C(=O)N2CN(C3CCS(=O)(=O)C3)Cc3c2sc(C)c3C)cc1 (configuration not stated) | -6 | -6 |
| 17 | Cc1cc(F)ccc1C(=O)N(CCN(C)C)Cc1ccsc1 | -9 | -15 |
| 18 | Cc1ccc(CN2CCC(CN(C)Cc3cnc(-c4ccccc4)s3)CC2)o1 | 4 | -3 |
| 19 | CSc1ncc(CNCc2ccc(F)c(Cl)c2)c(N(C)C2CCCCC2)n1 | 2 | -1 |
| 20 | CC1CCCN(C(C)C(=O)NCc2ccc(Cl)cc2)C1 (configuration not stated) | 10 | 6 |
| 21 | O=C(Cn1cnc2c(nnn2Cc2ccccc2)c1=O)c1ccccc1 | 8 | 6 |
| 22 | COc1cccc(-c2cnc(-c3cccc(CNC(=O)c4cccc(Cl)c4Cl)c3)[nH]2)c1 | 38 | 34 |
| 23 | C=CCn1c(SCC(C)C)nc2c1c(=O)n(C)c(=O)n2C | -1 | -3 |
| 24 | CCOC(=O)C1(Cc2ccccc2C)CCCN(C(=O)CSc2ccncc2)C1 (configuration not stated) | 8 | 6 |
| 25 | O=C1OC(/C=C/c2ccc(Cl)cc2)=NC/1=C/c1cccs1 | 4 | -1 |
| 26 | O=C(CCn1c(=O)oc2ccc(Cl)cc21)Nc1nc2ccccc2s1 | 10 | 16 |
| 27 | CC(=O)c1cc(C(=O)OCC(=O)Nc2ccccc2F)c2ccccn12 | 2 | -7 |
| 28 | COc1ccc(Oc2ccc(C(=O)N3CCC[C@H]3C(N)=O)cc2)cc1 | -1 | 4 |
| 29 | CC1CCc2c(sc(NC(=O)C3CCC3)c2C(N)=O)C1 (configuration not stated) | 4 | 6 |
| 30 | COc1ccccc1C1CCN(Cc2ccc(C(=O)N3C4CCC3CC(Oc3cccc(C(F)(F)F)c3)C4)cc2)CC1 (configuration not stated) | 18 | 6 |
| 31 | C=CCn1c(SCC(=O)Nc2ccccc2O)nc2sc(C)cc2c1=O | 12 | 8 |
| 32 | C=C(Br)Cn1c(CCCCCCCCCCC)nc2ccccc21 | -3 | -3 |
| 33 | COc1cccc([C@@H]2C[C@H](NC(C)=O)C[C@H](Cc3ccccc3)O2)c1F | 0 | -5 |
| 34 | OCC#CCSc1nnc(-c2ccc(Br)cc2)o1 | 13 | 2 |
| 35 | COCC(Cc1ccccc1)NC(=O)C(C)(C)C#N (configuration not stated) | 1 | -2 |
| 36 | CCOC(=O)[C@H]1C[C@]2(CCCCNC2=O)N(C(=O)/C=C/c2ccccc2)[C@H]1c1ccco1 | 5 | 15 |
| 37 | CCCCCCSC1=C(C#N)C2(CCCC2)C(C#N)C(=O)N1 (configuration not stated) | -3 | -3 |
| 38 | CC(c1ccon1)N(C)C(=O)c1ccc(OC2CCN(S(=O)(=O)N(C)C)CC2)cc1 (configuration not stated) | 18 | 3 |
| 39 | CCOC(=O)c1ccc(NC(=O)CSc2nnc(CNC(=O)c3ccc(S(=O)(=O)N(C)C)cc3)n2-c2cccc(C)c2)cc1 | -10 | 0 |
| 40 | COc1ccccc1N1CCN(c2ccc(NC(=O)c3ccc(C(C)(C)C)cc3)cc2C(=O)NCc2cccnc2)CC1 | -2 | 5 |
| 41 | CNc1cncc(-c2cc(OC)c(OC)c(OC)c2)n1 | 2 | -1 |
| 42 | O=S(=O)(NCCc1csc2nc(-c3ccccc3F)nn12)c1ccc2c(c1)CCCC2 | 6 | 4 |
| 43 | Cc1nc(C(=O)NC2CC(=O)N(Cc3ccccc3Cl)C2)cs1 (configuration not stated) | 6 | 1 |
| 44 | COCc1ccc(CNC(=O)N2CC(C)OC(C)C2)cc1 (configuration not stated) | 0 | -1 |
| 45 | CC1CN(C(=O)CN2CCc3sccc3C2c2cccc(F)c2)CCN1C(=O)c1ccco1 (configuration not stated) | 19 | 17 |

Part of the list above in order of molecular weight, descending.
| no. | smiles | NPYLR7 ag | NPYLR7 ag max-min |
| --- | --- | --- | --- |
| 40 | COc1ccccc1N1CCN(c2ccc(NC(=O)c3ccc(C(C)(C)C)cc3)cc2C(=O)NCc2cccnc2)CC1 | -2 | 5 |
| 37 | CCCCCCSC1=C(C#N)C2(CCCC2)C(C#N)C(=O)N1 (configuration not stated) | -3 | -3 |
| 44 | COCc1ccc(CNC(=O)N2CC(C)OC(C)C2)cc1 (configuration not stated) | 0 | -1 |

Carrying on.
| no. | smiles | NPYLR7 ag | NPYLR7 ag max-min |
| --- | --- | --- | --- |
| 46 | Cc1cnc(C(=O)Nc2ccc(S(=O)(=O)N3CCOCC3)cc2)cn1 | -2 | -4 |
| 47 | COc1ccc(NC2CCCN(C(=O)c3ccc4ncccc4c3)C2)cc1OC (configuration not stated) | 7 | 1 |
| 48 | CCN(CC)S(=O)(=O)c1ccc2c(c1)nc(SCc1ccccc1Br)n2C(C)C | 16 | 9 |
| 49 | O=C(C1CCCC1)N(Cc1c(-c2ccccc2)noc1N1CCCC1)CC1CCCO1 (configuration not stated) | -4 | 17 |
| 50 | CN1CCCC1CCOC(C)(c1ccccc1)c1ccc(Cl)cc1 (configuration not stated) | 4 | 3 |
| 51 | COCCN(Cc1ccc(C)o1)Cc1ccc(C(=O)OC)o1 | -4 | 5 |
| 52 | C=CCN1C(=O)C(=Cc2ccc(OC)c(F)c2)SC1=S | -2 | 19 |
| 53 | O=C(Cn1nnc(-c2ccc(F)cc2)n1)N1CCCCCCC1 | 5 | 0 |
| 54 | COc1ccccc1-c1ccc(N2CCC(O)(c3cccnc3)CC2)nn1 | 3 | 1 |
| 55 | Cc1ccc(-c2nnc(SCc3ccc(C(=O)O)cc3)n2-c2ccc(F)cc2)cc1 | -1 | -8 |
| 56 | CC(c1cccc(C(F)(F)F)c1)N(C1CC1)S(=O)(=O)c1cccc(C#N)c1 (configuration not stated) | 3 | 0 |
| 57 | CCCC(=O)NNC(=O)c1ccc(NS(=O)(=O)c2ccc(Br)cc2)cc1 | 4 | 0 |
| 58 | FC(F)(F)c1cccc(CC2CN(Cc3nccs3)CCO2)c1 (configuration not stated) | -18 | -22 |
| 59 | O=C1c2nc(-c3cccnc3)ccc2CN1C1(C(=O)NCC2CC2)CC1 | 6 | 9 |
| 60 | CC(C)(C)c1ccc(C(=O)NCCC(=O)N2CCCCC2)cc1 | 2 | 6 |
| 61 | CN(C)CCN(Cc1c(-c2ccccc2)noc1N1CCCCC1)C(=O)c1cccc(F)c1 | 7 | 9 |
| 62 | COc1ccc(OC)c(CC(=O)N(C)CC2CCN(CCc3ccc(Cl)cc3)CC2)c1 | 8 | 8 |
| 63 | Cc1ccc(Cn2nnc3c(=O)[nH]c(C4CCNCC4)nc32)cc1 | 1 | 0 |
| 64 | CC(OC12CCCCC1C(c1ccccc1)C2(C#N)C#N)c1ccccc1 (configuration not stated) | 7 | 12 |
| 65 | COc1cccc(-n2c(=O)c3ccc(Cl)cc3n(CC(=O)N3CCOCC3)c2=O)c1 | 29 | 26 |
| 66 | CC(C)(C)c1ccc(COc2coc(CN3CCCN(C(=O)CCc4ccccc4)CC3)cc2=O)cc1 | -1 | 3 |
| 67 | NC(=O)C1CCN(C(=O)c2c[nH]c3cc(Br)c(Br)cc23)CC1 | 15 | 13 |
| 68 | CCCCC(CC)C(=O)N(CCOC)CC(=O)N1CCc2sccc2C1c1ccc(Cl)cc1Cl (configuration not stated) | 19 | 17 |
| 69 | CCOC(=O)C1CCCN(C(=O)CCN2CC3=C(C2=O)C(c2ccccc2Cl)NC(=O)N3C)C1 (configuration not stated) | -1 | 3 |
| 70 | CC(=O)Oc1c(-c2ccc(NC(=O)c3cccc(Cl)c3)cc2)c(-c2cccc(C)c2)nn1-c1ccccc1C | 25 | 38 |
| 71 | O=[N+]([O-])c1ccc(CSc2nnc3ccc(-c4ccccc4)nn23)cc1 | -20 | -17 |
| 72 | COc1cccc(-c2cccc3c2NC(=O)C3(C)Cc2ccccc2C)c1 (configuration not stated) | -3 | 4 |
| 73 | CC(C)COc1nc(-c2cccs2)n(-c2ccc(NC(=O)CC(C)C)cc2)n1 | -4 | 1 |
| 74 | OCCN=Cc1cn(-c2ccccc2)nc1-c1ccc(Cl)cc1 | 3 | 0 |
| 75 | Cc1ccccc1Cn1ccnc1CN(CCN1CCOCC1)C(=O)c1ccc(F)cc1 | 9 | 15 |

An excerpt of these results, as labelled records.
64. CC(OC12CCCCC1C(c1ccccc1)C2(C#N)C#N)c1ccccc1 (configuration not stated)
  NPYLR7 ag: 7	NPYLR7 ag max-min: 12
65. COc1cccc(-n2c(=O)c3ccc(Cl)cc3n(CC(=O)N3CCOCC3)c2=O)c1
  NPYLR7 ag: 29	NPYLR7 ag max-min: 26
66. CC(C)(C)c1ccc(COc2coc(CN3CCCN(C(=O)CCc4ccccc4)CC3)cc2=O)cc1
  NPYLR7 ag: -1	NPYLR7 ag max-min: 3
67. NC(=O)C1CCN(C(=O)c2c[nH]c3cc(Br)c(Br)cc23)CC1
  NPYLR7 ag: 15	NPYLR7 ag max-min: 13

Continued.
| no. | smiles | NPYLR7 ag | NPYLR7 ag max-min |
| --- | --- | --- | --- |
| 76 | COc1ccc(OC2CCN(C3CCCC3)CC2)c(C(=O)NCc2nc(C)cc(C)n2)c1 | 3 | 3 |
| 77 | O=C(NCc1ccccn1)c1csc(COc2ccc(Cl)cc2)n1 | -2 | -4 |
| 78 | COc1cccc(Cn2ccnc2CN(C(=O)CC(C)C)C2CC2)c1 | -3 | -1 |
| 79 | COCCn1c(C(=O)Nc2ccc(C(C)=O)cc2)cc2c(=O)n(C)c(=O)n(C)c21 | 2 | 1 |
| 80 | CC(C)(C)CC(=O)N1CCC(c2cn(Cc3cccc(F)c3)c3ccccc23)CC1 | 19 | 7 |
| 81 | O=C(CC1CCS(=O)(=O)C1)Nc1ccc(Oc2ccccc2)cc1 (configuration not stated) | 3 | 8 |
| 82 | CCNC(=O)N(C)c1c(CC)nc2ccc(C(=O)NCc3ccccc3OC)cn12 | -1 | 31 |
| 83 | CC(C)(C)c1cc2nc(-c3ccccc3Cl)cc(C(=O)NCc3ccc(F)cc3)n2n1 | 15 | 9 |
| 84 | Cc1ccc(CN2C(=O)C(C)ON=C2c2ccc3c(c2)CCO3)cc1 (configuration not stated) | 7 | 5 |
| 85 | COc1cc2c(cc1OC)C(c1cccc(C(F)(F)F)c1)N(C(=O)c1ccc(Cl)nc1)CC2 (configuration not stated) | 19 | 9 |
| 86 | O=C(C1=C(O)C(=O)N(Cc2cccnc2)C1c1cccc([N+](=O)[O-])c1)c1cccs1 (configuration not stated) | 9 | 12 |
| 87 | Cc1cc(N2CCN(c3ccccc3F)CC2)nc(SCc2ccc(C(=O)NCC3CCCO3)o2)n1 (configuration not stated) | 9 | 8 |
| 88 | CCC(C)NC(=O)c1cc(NC(=O)Nc2ccc(SC)cc2)ccc1N1CCN(c2ccccc2OC)CC1 (configuration not stated) | 14 | 19 |
| 89 | Cc1ccc(Cc2nc(CSc3c(F)c(F)cc(F)c3F)cs2)cc1 | 24 | 25 |

Only part of the results is shown. The share of hits here may be higher or lower than overall.
